RN4220 kill = growth inhibition of S. aureus RN4220, primary screen, OD600; 16 h; inhibition, % (test concentration not listed); 330,000 compounds, 0.33% hits; AID 1259311, 2017;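 active = z-score of -3 or lower and OD600 up to 0.18 on both plates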;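 note: plate controls were untreated cells for no effect and reference antibiotic for full effect; stock transfer was 100 nL into about 80 µL; one replicate is shown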
PrP UTR inh = inhibition of PrP 5' UTR reporter expression; 340,000 compounds, 0.35% hits; inhibition, % (no concentration beside the values); cell-based PrP 5' UTR mRNA reporter, plate reader;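 active = every replicate at 50% or more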;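 note: 0 = median of the neutral control wells; tested in H4 reporter cells; numbers are from one replicate; inactives centre near -14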
Mtb hypoxia inh = PubChem AID 1159583; M. tuberculosis hypoxia-regulated fluorescent reporter, fluorescence; fluorescence inhibition, % (concentration not given with the values); 300,000 compounds, 0.1% hits;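 active = 35 to 45% if threefold the growth effect, above 45% if 1.5-fold the growth effect; inactive = the rest, general growth blockers included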;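 note: wells of about 50 µL received 100 nL stock; 0% = vehicle wells and 100% = reference inhibitor wells; whole bacteria with a GFP reporter of the hypoxia response; strong numbers were not always called active; many hits fall short of the cut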
Bead autofluor = flagged as autofluorescent in microsphere protease counterscreen; AID 624483; fluorescence intensity (concentration not given with the values); compound autofluorescence counterscreen, microsphere flow cytometry; active compounds read high; 360,000 compounds, 3.1% hits;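 active = at least 3 SD above the mean of all compounds, about 16000 in these data; inconclusive = too few beads counted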;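 note: 100 nL of 1 mM stock went into each well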
Sa ugtP lethal = growth inhibition of ugtP-null S. aureus, primary screen, RN4220 ugtP deletion, OD600; 330,000 compounds, 0.54% hits; growth inhibition, % (test concentration not listed); 16 h; some inactives read as strong as hits; AID 1259309, 2017;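 active = z-score under -3 and OD600 up to 0.15 on both plates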;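 note: plate controls were untreated wells for no effect and antibiotic for full effect; wells of about 80 µL received 100 nL stock; the first replicate is given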
BJeLR lethal = MLPCN primary cell-based screen for lethality selective to Ras in HRASV12 cells; BJeLR (HRASV12) viability, CellTiter-Glo ATP luminescence, 48 h; reference of the scale not given here; inhibition, % (concentration not given with the values); 300,000 compounds, 0.17% hits;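 active = replicate mean above 50%; inconclusive = above 50% but judged a plate artefact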;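 note: 50 nL library stock added to about 25 µL; numbers are from one replicate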
Mtb hypoxia inh growth = recorded beside Mtb hypoxia inh, whose call it bears; growth inhibition, %; measured here: M. tuberculosis growth (absorbance);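 0% = vehicle and 100% = reference antibiotic; read after six days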
Active calls of the source: *; ? = inconclusive; · = no result given. Hits appear at their usual frequency. About 3.9% of those tested had a hit in this group.

SMILES	RN4220 kill	PrP UTR inh	Mtb hypoxia inh	Mtb hypoxia inh growth	Bead autofluor	Sa ugtP lethal	BJeLR lethal
COc1cc(C2c3cc(O)c(OC)cc3CC(C(=O)O)C2CO)ccc1O (centres undefined)	3.4	-6	21	14	3873	3	·
N#Cc1ccc(C23CC4(C2)C(CN(Cc2ccc(C(F)(F)F)cc2)C4c2ccccc2)C3c2ccc(Cl)nc2)cc1 (centres undefined)	-2.4	·	-3	0	·	1	·
CCCn1c(=O)c(Cc2ccccc2)c(O)c2ccccc21	-1.1	-22	·	·	4278	4	13
O=C1C2CCCN2C(=S)N1c1ccc(Cl)cc1 (centres undefined)	3.0	-19	-3	2	4884	5	2
CC1CC(C)OP(=O)(OCCC#N)O1 (centres undefined)	1.4	9	1	6	2778	2	·
COc1cccc(Oc2cn[nH]c2-c2ccc(OC)cc2O)c1	-9.8	-4	·	·	2261	8	2
CN(C)C=Nc1sccc1C(N)=O	0.1	·	2	-3	·	3	·
O=C(Nc1cccc(O)c1)C1CC(c2c(F)cccc2Cl)=NO1 (centres undefined)	3.0	-22	3	4	3939	5	-7
CCc1ccccc1NCC(=O)Nc1ccccc1C(=O)OC	3.7	-17	2	9	2194	-7	-6
O=C(O)CSc1nnnn1-c1ccc2c(c1)OCCO2	0.3	-14	5	12	5319	-1	8
Cc1cc(C)c(C)c(S(=O)(=O)N2CCNCC2)c1C	1.9	-24	10	6	2418	0	6
Cc1cc(C)cc(N(CC(=O)N/N=C/c2ccncc2)S(=O)(=O)c2ccccc2)c1	·	-12	·	·	1972	·	-5
Cc1ccc(-n2nc3c(c2NC(=O)c2ccc4c(c2)OCO4)CS(=O)C3)c(C)c1 (centres undefined)	2.2	-7	11	2	5676	6	-13
N#CCC(=O)Nc1ccc(C(F)(F)F)cc1N1CCOCC1	3.6	-24	18	14	4112	4	10
COC(=O)C(CC(C)C)NC(=O)/C=C/c1ccc(Cl)cc1 (centres undefined)	3.4	8	18	10	2589	10	1
Cc1cc(C=Nn2cnnc2)c(C)n1-c1cc(Cl)ccc1Cl	-1.6	·	16	5	·	-4	·
Cc1ccccc1C=Nn1c(COc2ccccc2)n[nH]c1=S	5.2	·	11	0	·	3	·
COc1cc2[nH]c(=O)n(CCC(=O)NC3CCN(Cc4ccccc4)CC3)c(=O)c2cc1OC	1.0	-7	-5	18	3733	-6	-5
COc1ccc(CCNC(=O)C2CCCN2C(=O)Nc2ccc(Cl)cc2)cc1OC (centres undefined)	1.4	-40	-4	-3	3065	1	-6
O=C(O)c1c[nH]c2ccc(F)cc2c1=O	·	-17	·	·	2918	·	9
CCOC(=O)CSc1cc(=O)n(C)c2cc(Cl)ccc12	·	-25	·	·	2396	·	1
Cc1ccc(S(=O)(=O)N(Cc2cc3ccccc3[nH]c2=O)c2cccc(C)c2)cc1	2.8	4	-5	-8	6087	0	4
CN(C)c1ccc(-c2cccc(C3CC=CC4C3C(=O)N(Cc3ccccc3)C4c3ccc(C(F)(F)F)cc3)c2)cc1 (centres undefined)	9.8	-16	-1	-5	3493	-1	3
COc1ccc(NC(=S)NC(=NS(=O)(=O)c2ccc(C)cc2)c2ccccc2)cc1	-0.7	·	16	0	·	-15	·
C=C(C)COc1ccc(-c2nc(N)ncc2Oc2ccccc2OCC)c(O)c1	-1.6	-8	·	·	4413	2	-2

Brought forward from above: five entries, then new ones.
SMILES	RN4220 kill	PrP UTR inh	Mtb hypoxia inh	Mtb hypoxia inh growth	Bead autofluor	Sa ugtP lethal	BJeLR lethal
CCOC(=O)CSc1cc(=O)n(C)c2cc(Cl)ccc12	·	-25	·	·	2396	·	1
Cc1ccc(S(=O)(=O)N(Cc2cc3ccccc3[nH]c2=O)c2cccc(C)c2)cc1	2.8	4	-5	-8	6087	0	4
CN(C)c1ccc(-c2cccc(C3CC=CC4C3C(=O)N(Cc3ccccc3)C4c3ccc(C(F)(F)F)cc3)c2)cc1 (centres undefined)	9.8	-16	-1	-5	3493	-1	3
COc1ccc(NC(=S)NC(=NS(=O)(=O)c2ccc(C)cc2)c2ccccc2)cc1	-0.7	·	16	0	·	-15	·
C=C(C)COc1ccc(-c2nc(N)ncc2Oc2ccccc2OCC)c(O)c1	-1.6	-8	·	·	4413	2	-2
C=CCNC(=O)c1ccc(N(CC=C)S(C)(=O)=O)cc1	0.7	-2	·	·	4837	3	-14
O=C(CCCOc1ccc(Cl)cc1Cl)Nc1nnc(C2CC2)s1	0.1	2	-9	-10	5535	3	6
O=C(CCSc1ccc(Cl)cc1)N1CCN(c2ncccn2)CC1	-1.1	-26	·	·	3133	6	-1
COc1ccc(Nc2nc(NCc3ccco3)nc(NN=Cc3ccccc3Cl)n2)cc1	45	·	-8	6	·	14	·
c1csc(-c2nc(N3CCOCC3)c3ccccc3n2)c1	2.7	-7	16	1	3598	1	-7
CC1=NN(Cc2ccccc2)C(=O)C1	20	-19	18	13	9557	16	1
O=S(=O)(c1cc(Cl)ccc1Cl)N1CCN(Cc2ccc3c(c2)OCO3)CC1	-4.7	-43	·	·	6251	12	1
Cc1ccc(NC(=O)c2ccc(NCCCN3CCOCC3)c([N+](=O)[O-])c2)cc1Cl	-8.1	-7	7	3	2363	-6	10
CS(=O)(=O)N1CCCC(C(=O)NC2CCCCCCC2)C1 (centres undefined)	2.3	-12	3	8	10468	6	2
CCCNc1c(NC(=O)c2ccc3c(c2)OCO3)c(=O)oc2ccccc12	0.4	-4	-4	-3	5899	-3	-6
COCCNC(=S)N1CCN(S(=O)(=O)c2ccc(Cl)s2)CC1	4.1	-12	7	-9	?	5	12
CCCn1c(=N)n(CC(=O)c2ccc(Cl)c(Cl)c2)c2ccccc21	-7.0	-26	3	-3	4098	-14	3
O=C(N1CCN(Cc2ccccc2)CC1)C(Cl)(Cl)Cl	2.7	1	11	1	2341	11	-6
FC(F)(F)c1ccc(N=Cc2sc(N3CCOCC3)nc2-c2ccccc2)cc1	6.0	-8	7	16	2473	-2	-2
Cc1c(/C(O)=C2\C(=O)C(=O)N(CCN(C)C)C2c2cccnc2)cnn1-c1ccccc1 (centres undefined)	2.7	-7	·	·	4669	2	·
CC1(NC(=O)Nc2cccc3ccccc23)CCS(=O)(=O)C1 (centres undefined)	4.6	-6	0	-5	3031	12	4
CC1CN(C2CCN(S(=O)(=O)c3ccc(F)cc3)CC2)CC(C)O1 (centres undefined)	1.1	-10	-4	4	18932*	-3	5
CCC(C)(C)n1nnnc1C(c1ccccn1)N1CCN(c2cccc(OC)c2)CC1 (centres undefined)	-0.2	-20	15	5	3141	3	-1
O=C(NN=C1c2ccccc2-c2ccccc21)c1ccccc1Br	2.8	-6	-6	-8	11706	-9	-2
N#CCC(=O)NN=C1CCCCCCCCCCC1	3.5	-24	16	18	9118	-2	4
CC(C)C[C@H](NC(=O)C1CC(=O)N(c2ccc3c(c2)OCCO3)C1)C(=O)NC1CCCC1 (some centres undefined)	2.3	-13	11	-1	5395	5	3
Cn1c(=O)n(C)c2cc(NS(=O)(=O)c3ccccc3)ccc21	3.1	-11	5	4	5532	2	6
Cc1ccc2nc(-c3ccccc3)cc(C(=O)NCCCn3ccnc3)c2c1	5.3	-26	11	22	6893	12	-10
CCCC(=O)C1=C(c2ccccc2)C(C#N)(C#N)C(C#N)=C1N	-2.1	-8	4	-4	3249	6	-1
CCC(=O)N1CCc2cc(Br)cc(S(=O)(=O)Nc3c(C)n(C)n(-c4ccccc4)c3=O)c21	0.2	·	3	1	·	1	3

In the list so far, these have an aryl thioether with sulfur outside any ring.
SMILES	RN4220 kill	PrP UTR inh	Mtb hypoxia inh	Mtb hypoxia inh growth	Bead autofluor	Sa ugtP lethal	BJeLR lethal
O=C(O)CSc1nnnn1-c1ccc2c(c1)OCCO2	0.3	-14	5	12	5319	-1	8
CCOC(=O)CSc1cc(=O)n(C)c2cc(Cl)ccc12	·	-25	·	·	2396	·	1
O=C(CCSc1ccc(Cl)cc1)N1CCN(c2ncccn2)CC1	-1.1	-26	·	·	3133	6	-1

(cont.)
SMILES	RN4220 kill	PrP UTR inh	Mtb hypoxia inh	Mtb hypoxia inh growth	Bead autofluor	Sa ugtP lethal	BJeLR lethal
O=C(CSc1nnc(NC(=O)c2ccco2)s1)Nc1ccccc1Br	0.8	-21	-11	4	5341	3	-11
COc1ccc(CNCc2ccco2)cc1OCc1ccccc1	5.6	-49	12	13	4603	11	8
CSc1nc(-c2ccccc2)ccc1C(N)=O	2.5	-30	5	10	21978*	-4	-2
Cc1c(C(=O)N2CCCCC2)sc(N)c1C#N	-12	-21	11	6	2851	-4	-1
CC1Cc2ccccc2N1C(=O)COC(=O)c1ccc(Cl)nc1 (centres undefined)	5.4	-26	7	6	3895	3	11
Cc1ccsc1/C=N/Nc1ccc(Cl)nn1	·	-78	·	·	3802	·	-9
Cc1cc(=O)oc2cc(OCC3CC(c4ccc(N(C)C)cc4)=NO3)ccc12 (centres undefined)	-0.9	1	-8	2	3293	0	6
CN(c1ccccc1)S(=O)(=O)c1ccc(C(=O)NCc2ccc(F)cc2)cc1	1.8	-8	8	-1	5039	-5	·
Cc1ccc(/C=N/Nc2nc(N3CCOCC3)nc(N3CCOCC3)n2)o1	·	-30	·	·	3213	·	1
COc1ccc(NC(=O)CSc2nc(=O)n(CCN3CCOCC3)c3c2CCC3)c(OC)c1	2.4	-16	-1	4	5440	1	-2
COc1ccc(S(=O)(=O)NC2CCCCCC2)cc1C(N)=O	-6.8	-4	-8	-2	5950	-7	1
COCC(C)n1c(C)cc(C(=O)Cn2c(=O)oc3ccccc32)c1C (centres undefined)	3.0	-5	·	·	4686	5	-2
CC1CCCCN1Cc1ccc(Cl)nc1 (centres undefined)	8.7	-12	13	4	4233	7	-4
O=C(CSc1nnc(CNC(=O)c2c(F)cccc2F)o1)Nc1ccc2c(c1)OCCO2	3.1	-13	-2	-4	4866	11	11
CC1(C)Cc2c(sc(NC(=O)c3ccc4ncsc4c3)c2C(N)=O)C(C)(C)N1	15	-29	9	4	2545	-7	-2
COc1cccc(C2NC(=O)NC(C)=C2C(=O)OCC2CCCO2)c1 (centres undefined)	7.7	-5	11	11	4677	4	-2
O=C(c1ccc2ncsc2c1)N1CCN(c2cccc(C(F)(F)F)c2)CC1	-0.2	-33	7	8	4857	-1	·
CC1(C)Cc2c(cnn2-c2ccc(F)cc2)C(NC(=O)CCc2ccncc2)C1 (centres undefined)	3.9	-14	16	6	5110	10	-4
CC(C)(O)C(O)COc1c2occc2cc2ccc(=O)oc12 (centres undefined)	5.0	·	12	10	·	0	·
COc1ccccc1N1CCN(C2CCCCC2NS(=O)(=O)c2ccccc2)CC1 (centres undefined)	-0.3	-15	2	8	5790	0	-7
CCOc1ccc(NC(=S)N2CCC(c3nc4ccccc4[nH]3)CC2)cc1	2.0	-33	10	11	4303	5	-1
CN(C(=O)c1cccc(NC(=O)C2CCCN(C(=O)OC(C)(C)C)C2)c1)C1CCCC1 (centres undefined)	8.4	-19	6	13	4074	2	·
COc1ccc(-n2nc(C(=O)NCC(=O)N3CCCCC3)c3ccccc3c2=O)c(OC)c1	2.6	-19	2	0	3152	1	-10
CC(=O)NCCc1ccc(S(=O)(=O)N2CCCC2)cc1	6.8	-7	10	-5	3044	6	-3
Cc1nnc(SCC(=O)N2CCN(S(=O)(=O)c3ccc(Cl)cc3)CC2)n(N)c1=O	3.0	-8	5	7	3165	2	4
Next part.
SMILES	RN4220 kill	PrP UTR inh	Mtb hypoxia inh	Mtb hypoxia inh growth	Bead autofluor	Sa ugtP lethal	BJeLR lethal
CC(C)CC(N)c1cn(C(CCCCN)C(=O)N2CCNCC2)nn1 (centres undefined)	7.1	·	20	10	·	1	·
CCN(C(=O)CCc1nnc2ccc(NCc3ccco3)nn12)c1ccccc1	-3.3	-17	0	-8	5868	7	-9
COC(=O)C1=NN(C(C)=O)C2(CC(=O)N(c3cc(C)cc(C)c3)C2=O)C1 (centres undefined)	4.0	-30	16	7	8923	5	-9
COc1cc(COCC(O)CN2CCN(CCN3C(=O)c4cccc5cccc(c45)C3=O)CC2)cc(OC)c1OC (centres undefined)	2.3	-22	-6	2	2555	1	-15
O=C1C2C3CCCC3=C3CCCC3C2C(=O)N1c1ccc(Cl)cc1 (centres undefined)	2.7	-12	·	·	4245	-5	-3
S=C(NCCc1ccccn1)Nc1ccc(Cl)cc1Cl	2.5	-27	3	4	4577	7	-5
O=C(CSCC(=O)N1CCCCC1)Nc1nc(-c2ccccc2)c(-c2ccccc2)s1	-3.7	0	-1	9	5293	21	·
O=C(COC(=O)C12CC3CC(CC(Cl)(C3)C1)C2)Nc1ccccc1	4.3	-6	14	8	3261	1	·

Screening data (PubChem BioAssay)
